SmPrx2 inh: blocks S. mansoni peroxiredoxin 2 enzymatic activity | Potency, µM | S. mansoni Prx2 activity coupled to TGR/GSH (TGR is thioredoxin glutathione reductase), NADPH fluorescence loss, qHTS; some inactives read as strong as hits | hit rate 0.07% among 65,000; active means full or partial inhibition curve with a strong effect at the top dose; inconclusive means weaker partial or single-point curve; inactive means no accepted curve; also: series up to 57 µM; many of its hits are not listed in these tables
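Enzyme mix: 100 uM NADPH, 25 nM TGR, 700 uM GSH, 50 nM Prx2 in 100 mM phosphate pH 7.4, 10 mM EDTA, 0.01% Tween-20. 15 min RT with compound; NADPH/GSH added, H2O2 starts reaction; NADPH fluorescence read 8 min.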
Anthrax LT inh: anthrax lethal toxin internalization inhibition. hit rate 0.67% among 70,000. AID 912. Cells, anthrax lethal toxin internalization, FRET ratio (460/530). Potency, µM (top dose mostly 40 µM), for the others: top-dose activity change, negative = inhibition, actives largely listed as inhibitors; active = well fitted falling ratio curve with the 530 nm signal flat; inconclusive = other ratio curves, or a change in one channel alone; inactive = flat curves in the ratio and both channels; the % refers to the ratio; also: % is scaled to controls: 0 for no effect and ±100 for the full control effect; nearly all actives have a fitted effect of over 50% in size; tested in ME-180 cells; beta-lactamase reporter
* hit, by the source's call. Potency is read from the fitted curve at half-maximal effect. Some of the compounds tested; the hit share may differ from the screen's.

How did C=CCSC1=C(C#N)C(c2ccccc2C)CC(=O)N1 (stereo not given) do in these assays?
SmPrx2 inh: >57; Anthrax LT inh: -23%

Results for CCN(CC)S(=O)(=O)c1ccc(Cl)c(C(=O)Oc2cccnc2)c1 ?
SmPrx2 inh: >57; Anthrax LT inh: -7%

Results for Cc1ccc(C)c(N(CC(=O)NC2CCCCC2)C(=O)CCC(=O)Nc2ccccn2)c1 ?
SmPrx2 inh: >57; Anthrax LT inh: inconclusive

Results for Nc1n[nH]c(-c2ccccc2)c1-c1ccccc1 ?
SmPrx2 inh: >57; Anthrax LT inh: -4%

Results for CCN(CC)CCNC(=O)CCc1nn(C)c(=O)c2ccccc12 ?
SmPrx2 inh: >57; Anthrax LT inh: inconclusive

How did CCCCS(=O)(=O)Nc1ccc2ncn(C)c(=O)c2c1 do in these assays?
SmPrx2 inh: >57; Anthrax LT inh: 14%

How did Cc1onc(-c2ccccc2Cl)c1C(=O)Nc1ccc(-c2nnc3n2CCCCC3)cc1 do in these assays?
SmPrx2 inh: >57; Anthrax LT inh: 0%

Results for Cc1ccc2c(c1)CNc1ccccc1O2 ?
SmPrx2 inh: >57; Anthrax LT inh: -11%

What do the screens show for `Cc1nnc(SCCCn2c(N3CCCCC3)nc3c2c(=O)[nH]c(=O)n3C)s1`?
SmPrx2 inh: >57

What do the screens show for `O=C1C(C=NCc2ccccn2)=C(O)c2ccccc21`?
SmPrx2 inh: >57; Anthrax LT inh: -9%

What do the screens show for `COc1cc(C)c(C(N)=O)c(OC)n1`?
SmPrx2 inh: >57; Anthrax LT inh: inconclusive

What do the screens show for `O=C(NCCCCNC(=O)C1CCCC1)C1CCCC1`?
Anthrax LT inh: -11%

Results for O=C(COc1ccccc1)Nc1nc(-c2cccs2)cs1 ?
SmPrx2 inh: >57; Anthrax LT inh: -28%

How did Cc1csc(NC(=O)C2CCCN2C(=O)Oc2ccccc2)n1 (stereo not given) do in these assays?
SmPrx2 inh: >57; Anthrax LT inh: 8%

What do the screens show for `COc1ccc(NC(=O)NC(C(F)(F)F)C(F)(F)F)cc1`?
Anthrax LT inh: 4%

Results for CCOc1ccc(NC(C)=O)cc1 ?
SmPrx2 inh: >57; Anthrax LT inh: -10%

How did CC(NS(=O)(=O)c1ccc(Cl)cc1)C(c1cccs1)N1CCN(C)CC1 (stereo not given) do in these assays?
SmPrx2 inh: >57; Anthrax LT inh: -15%

What do the screens show for `COc1cc(NC(=O)c2nccnc2C(=O)O)cc(OC)c1`?
SmPrx2 inh: >57; Anthrax LT inh: -1%

Results for O=c1cc(Nc2ccc3c(c2)OCCO3)[nH]c(=O)n1Cc1ccc(F)cc1 ?
SmPrx2 inh: >57; Anthrax LT inh: 19%

How did COC(=O)CCN(C)CCC(=O)OC do in these assays?
SmPrx2 inh: >57; Anthrax LT inh: inconclusive

Structures shown so far with four or more nitrogen atoms (4):
Results for Cc1ccc(C)c(N(CC(=O)NC2CCCCC2)C(=O)CCC(=O)Nc2ccccn2)c1 ?
SmPrx2 inh: >57; Anthrax LT inh: inconclusive

Results for CCN(CC)CCNC(=O)CCc1nn(C)c(=O)c2ccccc12 ?
SmPrx2 inh: >57; Anthrax LT inh: inconclusive

How did Cc1onc(-c2ccccc2Cl)c1C(=O)Nc1ccc(-c2nnc3n2CCCCC3)cc1 do in these assays?
SmPrx2 inh: >57; Anthrax LT inh: 0%

What do the screens show for `Cc1nnc(SCCCn2c(N3CCCCC3)nc3c2c(=O)[nH]c(=O)n3C)s1`?
SmPrx2 inh: >57

Back to the main list, repeating the four entries before the break.
How did CC(NS(=O)(=O)c1ccc(Cl)cc1)C(c1cccs1)N1CCN(C)CC1 (stereo not given) do in these assays?
SmPrx2 inh: >57; Anthrax LT inh: -15%

What do the screens show for `COc1cc(NC(=O)c2nccnc2C(=O)O)cc(OC)c1`?
SmPrx2 inh: >57; Anthrax LT inh: -1%

Results for O=c1cc(Nc2ccc3c(c2)OCCO3)[nH]c(=O)n1Cc1ccc(F)cc1 ?
SmPrx2 inh: >57; Anthrax LT inh: 19%

How did COC(=O)CCN(C)CCC(=O)OC do in these assays?
SmPrx2 inh: >57; Anthrax LT inh: inconclusive

Results for Cc1ccc(C)c2[nH]c(=O)c(CCNC(=O)CC(C)C)cc12 ?
SmPrx2 inh: >57; Anthrax LT inh: -2%

What do the screens show for `Cc1onc(-c2c(F)cccc2Cl)c1C(=O)Nc1cccc(Cn2cccn2)c1`?
SmPrx2 inh: >57; Anthrax LT inh: inconclusive

Results for O=C1CCC(=O)N1CCC(c1ccc(F)cc1)c1ccco1 (stereo not given) ?
SmPrx2 inh: >57; Anthrax LT inh: -3%

What do the screens show for `O=C(c1cnccn1)N1CCC2(CC1)CN(c1ccncc1)C2`?
SmPrx2 inh: >57; Anthrax LT inh: 7%

What do the screens show for `CC(=O)OC(C(=O)NC1CCCCC1)c1ccccc1` (stereo not given)?
SmPrx2 inh: >57; Anthrax LT inh: 5%

Results for CCOC(=O)C1CCN(Cc2ccc(F)cc2)CC1 ?
SmPrx2 inh: >57; Anthrax LT inh: 3%

Results for O=C(O)COc1cccc(NC(=O)c2ccccc2)c1 ?
Anthrax LT inh: -1%

How did O=C(Nn1cnnc1)c1csc2ccccc12 do in these assays?
SmPrx2 inh: >57

How did COCCn1c(=O)c(-c2ccc(F)cc2)nc2cncnc21 do in these assays?
SmPrx2 inh: >57; Anthrax LT inh: inconclusive

How did CCC(C)(C)NC(=O)C(OC(=O)c1ccco1)c1ccccc1OC (stereo not given) do in these assays?
SmPrx2 inh: >57; Anthrax LT inh: 4%

How did COc1cc(-c2nnc(COC(=O)C3c4ccccc4Oc4ccccc43)o2)cc(OC)c1OC do in these assays?
SmPrx2 inh: >57; Anthrax LT inh: inconclusive

Results for CCN(Cc1ccccc1)C(c1cc2cc(C)cc(C)c2[nH]c1=O)c1nnnn1CCOC (stereo not given) ?
SmPrx2 inh: >57; Anthrax LT inh: -18%

Results for CCN1C(=O)C(CC(=O)N2CCN(C(c3ccccc3)c3ccccc3)CC2)N(CC)C1=O (stereo not given) ?
SmPrx2 inh: >57; Anthrax LT inh: -6%

What do the screens show for `CC(C)C[C@@H](CC(=O)N[C@@H](CCC(=O)O)CC(=O)O)NC(=O)[C@@H]1CCCC[C@H]1NC(=O)C[C@@H](NC(=O)C[C@H](Cc1c[nH]c2ccccc12)NC(=O)[C@@H]1CNCC[C@H]1N)C(C)C`?
SmPrx2 inh: >57; Anthrax LT inh: -9%

What do the screens show for `CCOC(=O)N1CCN(CC(O)COc2c(OC)cccc2OC)CC1` (stereo not given)?
SmPrx2 inh: >57; Anthrax LT inh: 6%

Results for COc1ccc(C)cc1S(=O)(=O)NC1CCCCC1C (stereo not given) ?
SmPrx2 inh: >57; Anthrax LT inh: -4%

How did CCOS(C)(=O)=O do in these assays?
Anthrax LT inh: inconclusive

Results for O=c1c(-c2cc(F)cc(F)c2)nc2cncnc2n1Cc1ccccc1Cl ?
SmPrx2 inh: >57; Anthrax LT inh: inconclusive

How did COc1ccc2nc(NC(=O)Cc3ccc(OC)c(S(=O)(=O)N4CCOCC4)c3)sc2c1 do in these assays?
SmPrx2 inh: >57; Anthrax LT inh: inconclusive

How did COc1cccc2cc(C(=O)N(C)C)c(=O)oc12 do in these assays?
SmPrx2 inh: >57; Anthrax LT inh: 24%

How did CCn1c(SC)nc2c(c1=O)SC(C)C2 (stereo not given) do in these assays?
SmPrx2 inh: >57; Anthrax LT inh: 19%

How did CCOc1cc(C2CC(=O)Nc3cc(C)c(C)cc32)ccc1O (stereo not given) do in these assays?
SmPrx2 inh: >57; Anthrax LT inh: 5%

Results for O=C(Nc1cc(=O)[nH]c2ncnn12)c1ccccc1Cl ?
SmPrx2 inh: >57; Anthrax LT inh: 0%

Results for CCOCCCNc1nc2ccccc2[nH]1 ?
SmPrx2 inh: >57; Anthrax LT inh: inconclusive

Results for COc1ccc(C(=O)Nc2ccc(OC)c(OC)c2)cc1 ?
SmPrx2 inh: inconclusive; Anthrax LT inh: -5%

Results for O=C(CSc1n[nH]c(=O)[nH]c1=O)c1ccccc1 ?
SmPrx2 inh: >57; Anthrax LT inh: 12%

What do the screens show for `C=CCn1c(CCNC(=O)c2cccs2)nnc1SCC(=O)Nc1cccc(C(C)=O)c1`?
SmPrx2 inh: >57; Anthrax LT inh: 1%

Results for CCOC(=O)c1nc(NCc2cccnc2)c2ccccc2n1 ?
SmPrx2 inh: >57; Anthrax LT inh: 12%

What do the screens show for `CCCCn1c(SCC(=O)NCCc2ccc(OC)c(OC)c2)nc2c1c(=O)n(C)c(=O)n2C`?
SmPrx2 inh: >57; Anthrax LT inh: -10%

Results for CCOc1cc(-c2c(C)c(CC)nc(N)c2C#N)ccc1O ?
SmPrx2 inh: >57; Anthrax LT inh: -17%

Results for C/C(Cl)=C\Cn1c(N2CCCCCC2)nc2c1c(=O)n(C)c(=O)n2C ?
SmPrx2 inh: >57; Anthrax LT inh: -3%

Results for O=C1CCCC/C1=C/Nc1ccc2c(c1)OCO2 ?
SmPrx2 inh: >57; Anthrax LT inh: 5%

What do the screens show for `COc1ccc(Oc2ncc3nc(C)c(=O)n(CCc4ccccc4)c3n2)cc1`?
SmPrx2 inh: >57; Anthrax LT inh: -14%

What do the screens show for `Cc1nn(-c2ccccc2)c2sc(C(=O)C(C#N)c3ccccn3)cc12` (stereo not given)?
SmPrx2 inh: >57; Anthrax LT inh: inconclusive

What do the screens show for `COc1ccc2oc(C(=O)OCC(=O)c3ccc4c(c3)OCCO4)c(C)c2c1`?
SmPrx2 inh: >57; Anthrax LT inh: -4%

What do the screens show for `COCc1cc(C)nc(Nc2ccc(C)c(C)c2)c1C#N`?
Anthrax LT inh: inconclusive

What do the screens show for `Cc1ccc(C(=O)C2=C(O)C(=O)N(CCCN3CCOCC3)C23C(=O)N(C)c2ccccc23)o1` (stereo not given)?
SmPrx2 inh: >57; Anthrax LT inh: -3%

How did COc1cc(NC(=O)C2CC(c3cccc(OC)c3OC)=NO2)cc(OC)c1OC (stereo not given) do in these assays?
SmPrx2 inh: >57; Anthrax LT inh: 4%

How did CCCCN(CC)CCCNC(=O)c1cc2cc3ccc(OC)cc3nc2o1 do in these assays?
SmPrx2 inh: >57; Anthrax LT inh: 13µM*

How did Cc1ccc(NC(=O)c2cc(N(C)C)ccc2[P+](=O)O)cc1 do in these assays?
SmPrx2 inh: >57; Anthrax LT inh: 4%

How did CCOc1ccccc1-c1nc2c([nH]1)c(=O)n(C)c(=O)n2C do in these assays?
SmPrx2 inh: >57; Anthrax LT inh: 7%

Results for CC1Cc2ccccc2N1C(=O)COc1cccc(-n2cnnn2)c1 (stereo not given) ?
SmPrx2 inh: >57; Anthrax LT inh: 17%

What do the screens show for `CC(C)C[C@H](NC(=O)NCc1ccc(Cl)cc1)C(=O)O`?
SmPrx2 inh: >57; Anthrax LT inh: 6%

How did O=C1C(c2ccc(F)cc2)N(C2CCCCC2)C(=O)CN1C1CCCC1 (stereo not given) do in these assays?
SmPrx2 inh: >57; Anthrax LT inh: inconclusive

Results for Cc1nonc1NC(=O)c1ccc(Cl)c(S(=O)(=O)N2CCCCC2)c1 ?
SmPrx2 inh: >57; Anthrax LT inh: -4%

Results for Cn1c(=O)cc(SCC(=O)NCC2CCCO2)c2ccc(Cl)cc21 (stereo not given) ?
SmPrx2 inh: >57; Anthrax LT inh: 3%

Results for C(=N\c1c(-c2ccccc2)nc2n1CCS2)/c1ccccc1 ?
Anthrax LT inh: inconclusive

How did O=S(=O)(NCC(c1cccnc1)N1CCN(Cc2ccccc2)CC1)c1ccccc1 (stereo not given) do in these assays?
SmPrx2 inh: >57; Anthrax LT inh: -10%

How did CC(C)N(C)C do in these assays?
Anthrax LT inh: -9%

How did COc1cccc(C2CC(c3ccc(C)cc3)Nc3nc(N)nn32)c1 (stereo not given) do in these assays?
SmPrx2 inh: >57; Anthrax LT inh: -1%

Results for CCOC(=O)C1CCCN(CC(=O)Nc2c(C(=O)OC)[nH]c3ccc(Br)cc23)C1 (stereo not given) ?
SmPrx2 inh: >57; Anthrax LT inh: -5%

Results for CCCN(CCC)S(=O)(=O)c1cc(Br)cc2c1N(C(=O)CC)CC2 ?
SmPrx2 inh: >57; Anthrax LT inh: -22%

Results for Cn1cnc2cc(NC(=O)c3ccco3)ccc21 ?
SmPrx2 inh: >57; Anthrax LT inh: 0%

How did CCOC(=O)C(C)Sc1nnc(Cc2cc(=O)[nH]c(=O)[nH]2)n1-c1ccc(Cl)cc1 (stereo not given) do in these assays?
SmPrx2 inh: >57; Anthrax LT inh: 9%

How did O=C(Nc1ccccc1C(F)(F)F)c1cccnc1 do in these assays?
SmPrx2 inh: >57; Anthrax LT inh: -4%

Results for O=C(Nc1cccc(C(F)(F)F)c1)c1cc(-c2cccs2)on1 ?
SmPrx2 inh: >57; Anthrax LT inh: -15%

What do the screens show for `O=[N+]([O-])c1ccc(Cl)cc1`?
Anthrax LT inh: 5%

How did CCC(=O)Nc1cccc(-c2nc3ccccc3c(=O)o2)c1 do in these assays?
SmPrx2 inh: >57; Anthrax LT inh: -1%

Among those listed so far, 3 have a CF3 group.
What do the screens show for `COc1ccc(NC(=O)NC(C(F)(F)F)C(F)(F)F)cc1`?
Anthrax LT inh: 4%

How did O=C(Nc1ccccc1C(F)(F)F)c1cccnc1 do in these assays?
SmPrx2 inh: >57; Anthrax LT inh: -4%

Results for O=C(Nc1cccc(C(F)(F)F)c1)c1cc(-c2cccs2)on1 ?
SmPrx2 inh: >57; Anthrax LT inh: -15%

From PubChem
